Assay outcomes deposited in PubChem BioAssay by National Center for Advancing Translational Sciences (NCATS).
D2 agonist: agonists of human D2 dopamine receptor (beta-arrestin); AID 624465; DiscoveRx PathHunter D2 beta-arrestin, luminescence, 90 min; 100% = 57 uM dopamine signal; actives 0.084% (n = 360,000); P14416; activation, % (test concentration not listed); in the data active = activation above about 40%; inconclusive = about 15% to 40%; inactive = below about 15%; further: compound concentration not given in the record; the text of the record calls up to 30% inactive
Target sequence (P14416 whole entry, looked up): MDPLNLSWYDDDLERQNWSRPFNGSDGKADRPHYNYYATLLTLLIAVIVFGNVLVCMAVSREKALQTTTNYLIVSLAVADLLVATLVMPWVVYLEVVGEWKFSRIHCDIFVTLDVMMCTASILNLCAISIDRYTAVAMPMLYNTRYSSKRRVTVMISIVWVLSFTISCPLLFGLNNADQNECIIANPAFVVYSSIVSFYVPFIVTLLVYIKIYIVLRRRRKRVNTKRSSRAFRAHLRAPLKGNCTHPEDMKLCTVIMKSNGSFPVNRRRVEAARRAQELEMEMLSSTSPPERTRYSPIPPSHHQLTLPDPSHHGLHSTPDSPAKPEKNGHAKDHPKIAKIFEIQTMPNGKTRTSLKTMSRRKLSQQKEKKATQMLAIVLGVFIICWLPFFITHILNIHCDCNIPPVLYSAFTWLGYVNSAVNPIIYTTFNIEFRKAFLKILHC
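DiscoveRx PathHunter D2 beta-arrestin cells (2,100/well) attached overnight, then compound-stimulated 90 min at 37 C in HBSS/10 mM HEPES/0.1% Tween-20 buffer; beta-galactosidase complementation read by luminescence after 1 h at ambient temperature. Dopamine 57 uM final (EC100) as control.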
TRPML1 ag: agonists of human TRPML1 channel; Q9GZU1; TRPML1-expressing cells, Ca2+ dye fluorescence, FDSS; host cell line not named in the record; reference of the full effect not given here; activation, % (no concentration beside the values); actives 0.12% (n = 410,000); in the data active = activation above about 50%; inconclusive = about 30% to 50%; inactive = below about 30%; further: 0% is about no effect; the text of the record puts the active cut at 80%
Target sequence (Q9GZU1 whole entry, looked up): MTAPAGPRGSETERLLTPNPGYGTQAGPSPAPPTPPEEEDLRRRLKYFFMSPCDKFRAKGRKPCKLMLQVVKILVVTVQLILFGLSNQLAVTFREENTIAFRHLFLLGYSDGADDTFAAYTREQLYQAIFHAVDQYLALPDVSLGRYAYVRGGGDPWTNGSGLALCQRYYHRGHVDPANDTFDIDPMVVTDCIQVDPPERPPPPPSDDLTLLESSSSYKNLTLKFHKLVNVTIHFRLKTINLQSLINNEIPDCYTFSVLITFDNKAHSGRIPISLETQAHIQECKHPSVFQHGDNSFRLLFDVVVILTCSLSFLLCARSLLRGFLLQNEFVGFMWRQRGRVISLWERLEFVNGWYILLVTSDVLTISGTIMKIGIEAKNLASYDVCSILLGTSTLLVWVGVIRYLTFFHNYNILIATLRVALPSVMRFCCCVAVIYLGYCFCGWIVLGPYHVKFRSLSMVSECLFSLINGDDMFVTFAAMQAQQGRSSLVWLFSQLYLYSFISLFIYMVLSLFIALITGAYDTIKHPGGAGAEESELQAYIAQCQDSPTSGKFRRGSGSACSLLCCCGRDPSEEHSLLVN
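In this qHTS format, compounds were pin-transferred onto Ca8-dye-loaded TRPML1-DL cells induced with Tet overnight, and intracellular Ca2+ fluorescence was recorded kinetically for 110 s after a 10 s baseline. A subsequent 4uM final 54-4 (EC80) addition followed by a second 110 s read served as the antagonist phase.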
PINK1 modulator: PINK1 expression modulation | Potency, µM (titrated, usually from 76.6 µM), inactives show top-dose activation (PINK1 increase), usual class: activators | PINK1 immunofluorescence, high-content cytometry, 24 h | actives 0.2% (n = 410,000); active = well fitted activation curve with a large enough effect; inconclusive = small, poorly fitted or top-dose-only effect; inactive = flat fitted curve, though single readings scatter; cell line not stated here;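 further: potency means the concentration at half of the fitted maximal effect; % of control where 0% means no effect; nearly all actives have a fitted effect of over 65% in size; a mitochondrial uncoupler was the plate control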
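Compound titrations (5 concentrations, 24 h) on a stable cell line; DMSO and CCCP controls. Endpoint: fixed-cell PINK1 immunofluorescence with mitochondrial, cell and nuclear markers, scanned by microplate cytometer.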
Six1-Eya2 blk: inhibitors of human Six1/Eya2 interaction; AlphaScreen GST-Six1/His-Eya2 binding, biochemical; active compounds read low; control for the full effect not named in the record; activity change, % (test concentration not listed); actives 0.56% (n = 360,000); AID 651725; in the data active = activity change below about -65%; inconclusive = about -30% to -65%; inactive = above about -30%; further: on the % scale 0 is the no-effect control and ±100 the full control effect
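Compounds are tested against tagged Six1 and Eya2 proteins bridged by glutathione donor and nickel acceptor beads; after a one-hour incubation at 37 °C without light, AlphaScreen emission is recorded.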
TRPML1 inh: human mucolipin-1 channel inhibition; actives 0.02% (n = 390,000); activity change, negative = inhibition, % (concentration not given with the values); Q9GZU1; TRPML1-inducible cells, Ca2+ dye fluorescence, FDSS; active compounds read low; inhibition of EC80 agonist-evoked calcium signal; AID 624415; in the data active means activity change below about -50%; inconclusive means about -30% to -50%; inactive means above about -30%;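 further: stimulus is agonist 54-4 at its EC80 concentration; on the % scale 0 is the no-effect control and ±100 the full control effect; the text of the record puts the active cut at -80%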
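Calcium fluorescence in TRPML1-DL cells induced overnight with Tet: a 110 s read after compound pin addition, then a 110 s antagonist read after challenge with 54-4 at 4 uM final (EC80).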
CtBP-E1A blk: inhibitors of CtBP/E1A interaction; AlphaScreen GST-E1A/His-CtBP binding, 1536-well; active compounds read low; control for the full effect not named in the record; activity change, % (concentration not given with the values); actives 0.49% (n = 340,000); in the data active means activity change below about -65%; inconclusive means about -30% to -65%; inactive means above about -30%; further: on the % scale 0 is the no-effect control and ±100 the full control effect
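Steps: dispense buffer (Tris pH 8.0, NaCl 300 mM, TCEP 1 mM, BSA, Tween 20); add 5X protein mix (GST-E1A, His-CtBP, 125 nM each); pin 23 nL compound; 2 h at 37 °C, dark; add 5X beads (50 ug/mL); 1 h; read.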
Active calls of the source: *; ? = inconclusive; . = not tested or not shown; [ ] = another dose, or the depositor's remark. Not a hit list; overall some 1% were active at least once.

SMILES	D2 agonist	TRPML1 ag	PINK1 modulator	Six1-Eya2 blk	TRPML1 inh	CtBP-E1A blk
CCCCn1nc(C(=O)Nc2ccc(-n3cnnn3)cc2)c2ccccc2c1=O	2.1	1.7	5.9%	3	4	1
COc1cc(/C=N/NC(=O)C2(O)c3ccccc3-c3ccccc32)ccc1O	0.2	-0.3	-3.3%	0	4	-13
CCC1CCCCN1CCN1C(=O)C2C(C(=O)Nc3ccc(OC)cc3)C3C=CC2(O3)C1C(=O)NC1CCCCC1 (stereo not given)	3.4	0.7	-1.0%	-6	-4	-13
O=C(Cc1ccccc1)Nc1ccc2oc(=O)ccc2c1	-2.7	0.1	0.0%	2	4	-11
CCN(CC)C(=O)c1ccc(C(=O)c2c(C)cc(C)cc2C)cc1	-2.5	-0.6	-0.7%	2	30	5
NC(=O)NC(=O)COC(=O)CN1C(=O)C2CCCCC2C1=O (stereo not given)	-1.7	0.2	2.7%	24	-7	0
Fc1ccc(CN2CC[C@H]3C=CCc4cccc(c43)C2)cc1	8.0	3.0	17%	-10	-1	-1
OCCN1CCOCCN(CCO)CCOCC1	3.3	-0.3	-1.8%	16	-11	-1
COC(=O)c1ccc(C(=O)OC)c(NC2=NS(=O)(=O)c3ccccc32)c1	-1.2	-0.6	0.1%[38.3 µM]	1	10	18
COc1ccc(CNC(=O)Cn2ccc3cc(S(=O)(=O)N4CCCCC4)ccc32)cc1OC	.	1.2	2.2%	.	3	.
O=C(N/N=C/c1cccnc1)c1ccco1	-1.0	-0.3	-1.5%	4	-3	4
COc1cc(C(=O)N2CCN(C(=O)c3ccco3)CC2)c([N+](=O)[O-])cc1OC	-3.5	2.9	1.3%	9	-4	6
CC(=O)N1CCN(C(=O)c2ccc(NS(=O)(=O)c3ccc4[nH]c(=O)[nH]c4c3)cc2)CC1	0.4	-0.1	-0.7%	6	5	-4
Cc1cc(C(F)F)n2nc(C(=O)Nc3ccccc3F)nc2n1	-1.9	-0.5	-0.3%	11	-12	-10
[O-][n+]1onc2c1C(N1CCOCC1)CCC2N1CCOCC1 (stereo not given)	-3.5	1.2	-2.4%	?	-12	22
Cc1[nH]c2ccccc2c1SCC(=O)Nc1nccs1	-3.9	-0.3	3.9%	-3	-2	7
COc1ccc(OC)c(NC(=O)C2=C(C)C(=O)OC23CCCCCC3)c1	.	-1.2	0.2%	.	-22	.
NC(=O)COC(=O)[C@H](Cc1ccccc1)NS(=O)(=O)c1ccc2c(c1)OCCO2	-3.1	1.8	3.6%	9	4	-22
O=C(NCCc1ccccc1)C(=O)NC1CCCCC1	0.8	-0.7	1.4%[38.3 µM]	27	13	47
O=C(O)CCC(=O)NNC(=O)CCCOc1ccc(Cl)cc1Cl	-2.7	-0.2	-1.4%	-5	-12	14
Cc1cccc(C(=O)NCCc2ccc(S(N)(=O)=O)cc2)c1[N+](=O)[O-]	-4.1	0.0	0.9%	3	-21	4
CCC(C)(C)NC(=O)CN(Cc1ccc2c(c1)OCO2)C(=O)CCC(=O)Nc1cc(C)ccn1	-4.7	-1.8	2.6%	-18	4	-1
CCc1ccc(-c2cc(C)no2)cc1S(=O)(=O)NCCCN1CCN(c2ccccc2)CC1	-3.4	1.1	0.4%	-19	18	?
Cc1ccc(NC(=O)CN2C(=O)N/C(=C/c3ccco3)C2=O)cc1	-4.8	0.5	3.8%	-14	-20	-1
CCn1c2c(c3cc(Br)ccc31)CCC/C2=N\O	-3.3	0.0	-1.9%[38.3 µM]	3	5	4
O=C1OC(CN(Cc2ccccc2)Cc2ccccc2)CN1N=Cc1ccc([N+](=O)[O-])o1 (stereo not given)	0.9	0.9	3.8%	-7	9	-16
COc1ccccc1/C(O)=C(\C#N)c1nc2ccccc2[nH]1	3.3	0.5	13%	-1	-9	.
CCOc1ccc(CCNC(=O)c2cc3cc4cc(OC)ccc4nc3s2)cc1OCC	.	0.8	1.5%	.	-16	.
CCOC(=O)C1CCN(C(c2ccc(C)cc2)c2c(O)cc(C)n(CCOC)c2=O)CC1 (stereo not given)	.	0.0	-0.3%	.	9	.
CN1CCN(Cc2c(C#N)c3ccccc3n2C)CC1	-1.9	0.3	2.7%	-7	-18	2
CCc1cc(=O)oc2c(C)c(OCC(=O)NCCCN3CCOCC3)ccc12	-2.9	0.4	-0.9%	-2	-18	-20
S=C1NCCNC(=S)NCCOCCOCCOCCN1	-3.8	-0.7	0.7%	7	5	-1
COc1ccc(C(=O)Nc2nc3nc(C)c(Cc4ccccc4)c(=O)n3[nH]2)cc1OC	.	-0.4	-0.2%	.	-12	.
Cc1ccc(C)c(C(=O)CN2C(=O)c3ccccc3S2(=O)=O)c1	-0.5	0.5	3.3%[38.3 µM]	4	39	9
CCCCn1c(N)c(N(CC)C(=O)c2ccc([N+](=O)[O-])c(C)c2)c(=O)[nH]c1=O	-5.7	-0.8	2.4%	-17	31	-2
Cc1ccc(S(=O)(=O)NCC2CCC(C(=O)N3CCN(C)CC3)CC2)cc1 (stereo not given)	-2.0	2.0	-0.7%	3	-6	.
Cc1ccc(NC(=O)CSc2nnc3ccc(-c4ccncc4)nn23)cc1	-1.7	0.1	-1.2%	3	37	-15
Cc1ccc(-c2nnc(Nc3ccc(C(=O)N(C)C)cc3)c3ccccc23)cc1S(=O)(=O)N(C)C	.	0.2	5.5%	.	55	.
COCCNC(=O)C1Cc2c(ccc3ccccc23)O1 (stereo not given)	-3.0	-0.4	0.4%	-2	21	3
CCOC(=O)C1C(c2cccc([N+](=O)[O-])c2)C2C(=O)NN=C2CC1(C)O (stereo not given)	0.8	0.6	-0.9%	-4	45	5
O=C(NCCCn1ccnc1)/C(=C\c1cccnc1)NC(=O)c1ccccc1Br	-6.5	0.0	0.6%	5	17	0
CC(=O)c1ccccc1NC(=O)COC(=O)Cc1cccc(C(F)(F)F)c1	1.1	4.9	-1.0%	9	38	12
Cc1nc(NCc2cccnc2)c2c3c(sc2n1)CCCC3	10	2.1	4.9%	-10	11	3
COc1ccc(NC(=O)CN(C)C(=O)C2CC(=O)N(Cc3ccc(C)cc3)C2)cc1 (stereo not given)	-4.3	0.4	0.8%	5	-11	4
CCN(CC)CCCNC(=O)C1c2ccccc2Oc2ccccc21	-1.3	-0.5	-0.8%	3	3	0

Exported in markdown: part of the list above
| mol | D2 agonist | TRPML1 ag | PINK1 modulator | Six1-Eya2 blk | TRPML1 inh | CtBP-E1A blk |
| --- | --- | --- | --- | --- | --- | --- |
| CCOC(=O)C1C(c2cccc([N+](=O)[O-])c2)C2C(=O)NN=C2CC1(C)O (stereo not given) | 0.8 | 0.6 | -0.9% | -4 | 45 | 5 |
| Cc1ccc(C)c(C(=O)CN2C(=O)c3ccccc3S2(=O)=O)c1 | -0.5 | 0.5 | 3.3%[38.3 µM] | 4 | 39 | 9 |
| Cc1ccc(NC(=O)CSc2nnc3ccc(-c4ccncc4)nn23)cc1 | -1.7 | 0.1 | -1.2% | 3 | 37 | -15 |
| CCCCn1c(N)c(N(CC)C(=O)c2ccc([N+](=O)[O-])c(C)c2)c(=O)[nH]c1=O | -5.7 | -0.8 | 2.4% | -17 | 31 | -2 |
| O=C(NCCCn1ccnc1)/C(=C\c1cccnc1)NC(=O)c1ccccc1Br | -6.5 | 0.0 | 0.6% | 5 | 17 | 0 |

(cont.)
SMILES	D2 agonist	TRPML1 ag	PINK1 modulator	Six1-Eya2 blk	TRPML1 inh	CtBP-E1A blk
Cc1ccc(C)c(NC(=O)C(=O)NCCc2c[nH]c3ccccc23)c1	-2.3	0.6	2.4%	-5	1	5
Cc1c(NC2=C(Cl)C(=O)N(c3ccccc3Cl)C2=O)c(=O)n(-c2ccccc2)n1C	-0.1	1.2	4.3%	-6	6	-1
COc1ccccc1OCCNC(=O)C(c1ccccc1)c1ccccc1	-3.0	3.0	-1.1%	-1	16	.
O=C(Cn1cnc2ccccc2c1=O)Nc1ccc(S(=O)(=O)N2CCCC2)cc1	-4.2	1.0	1.3%	2	0	.
O=C(NNC1=NCCC1)c1cccc(Br)c1	-0.8	1.5	0.1%	2	26	-4
c1ccc(Cn2c(Sc3nnnn3-c3ccccc3)nnc2-c2ccccc2)cc1	-4.0	0.1	-0.5%[38.3 µM]	0	-13	0
COC(=O)C1=NNC2(c3ccc(C)cc3)C(=O)N(c3ccc(C)cc3)C(=O)C12 (stereo not given)	-1.5	0.6	2.5%	0	-6	-1
Clc1ccccc1OCCN1CCC(Cc2ccccc2)CC1	1.1	-0.6	11%	-13	4	-3
C=CCn1c(NCc2c[nH]c3ccccc23)nc2ccccc21	-1.1	-0.2	-0.5%	3	-10	-9
O=C(CN(c1ccccc1Cl)S(=O)(=O)c1ccccc1)NCc1ccccc1	-5.3	2.9	-0.1%	0	38	0
O=C(Nc1ccc(Cl)cc1F)c1cc(S(=O)(=O)N2CCCCC2)ccc1F	-1.4	-1.4	14%	2	-3	3
O=C(CSc1nc(=O)n(CCN2CCOCC2)c2c1CCC2)Nc1ccc(Cl)c(Cl)c1	.	0.2	0.7%	.	4	.
Cc1ccc([C@H]2C(C(=O)O)=CC[C@@H](c3ccc(Cl)cc3)N2S(=O)(=O)c2ccc(C)cc2)cc1	1.1	-0.5	-1.2%	-1	23	0
CSCCC(NS(=O)(=O)c1ccccc1F)C(=O)OCc1ccccc1Cl (stereo not given)	-3.6	0.3	3.5%	-11	6	-2
CCOc1cc(/C=N/NC(=O)CSc2nncn2C)ccc1OC(=O)c1ccc(Cl)cc1	-3.5	0.4	1.0%	-14	51	-28

As entered above:
Cc1ccc([C@H]2C(C(=O)O)=CC[C@@H](c3ccc(Cl)cc3)N2S(=O)(=O)c2ccc(C)cc2)cc1 @ TRPML1 inh = 23
Clc1ccccc1OCCN1CCC(Cc2ccccc2)CC1 @ CtBP-E1A blk = -3
O=C(Cn1cnc2ccccc2c1=O)Nc1ccc(S(=O)(=O)N2CCCC2)cc1 @ Six1-Eya2 blk = 2
Cc1ccc(C)c(NC(=O)C(=O)NCCc2c[nH]c3ccccc23)c1 @ Six1-Eya2 blk = -5

Next section.
SMILES	D2 agonist	TRPML1 ag	PINK1 modulator	Six1-Eya2 blk	TRPML1 inh	CtBP-E1A blk
N#Cc1cccc(C#N)c1Oc1ccc(S(=O)(=O)Nc2ccc(Cl)cc2)cc1	-1.4	0.2	0.5%	0	2	.
CCOc1cccc(OCCOCCN(C)Cc2ccccc2)c1	-3.3	5.2	-0.2%	-4	28	-1
COc1cc2cc(CCCO)oc(=O)c2cc1OC	-2.9	2.1	0.0%	-8	5	-6
Nc1nc(Cl)cc(Nc2ccccc2Cl)n1	-3.6	0.3	1.0%	-1	11	.
CCc1ccc(OC(=O)/C=C/c2ccco2)cc1	1.9	0.8	0.8%	22	1	7
CC(=O)NC1C(=O)N(Cc2ccccc2)c2ccc(Br)cc21 (stereo not given)	-5.9	.	3.7%	-1	.	3
O=C(CSc1nc2ccccc2n1Cc1ccccc1Cl)N/N=C/c1ccccc1C(=O)O	-0.3	-0.5	0.7%	-10	2	-3
COc1ccc(-c2nc(N)n(S(=O)(=O)c3ccc(C)cc3)n2)cc1	-3.4	0.5	5.3%	-14	2	-6
Cc1c(C(=O)Nc2ccc(F)c(Cl)c2)oc2ccc(S(=O)(=O)N(C)C3CCCCC3)cc12	.	0.5	3.9%	.	2	.
